Source: PubChem BioAssay
rRNA inh HTS: reduced GFP signal of wild-type E. coli, primary screen, bacterial rRNA inhibitor project, GFP/RFP fluorescence, OD600, single point | GFP signal change (wild-type ribosome), % (concentration not given with the values) | E. coli WT GFP vs humanized-ribosome RFP mutants, 24 h; hits give low values; DMSO median 0, no signal -100 | AID 720706, 2013 | hit rate 1.6% among 350,000;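 active means significant combined selectivity score with lowered wild-type GFP, culture density cut under 30%, mutant RFP and density less affected; inactive means any of these conditions unmet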; further: one replicate is shown; some compounds called inactive have numbers as strong as hits
T cruzi repl: inhibitors of intracellular T. cruzi growth, primary screen, luminescence, NIH3T3 host cells | T. cruzi beta-gal in NIH3T3, 90 h | inhibition, % (no concentration beside the values) | AID 1885, 2009 | hit rate 1.4% among 300,000;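 active means mean inhibition across valid replicates above about 55%, limit read from the data; inconclusive means mean below that limit but half or more replicates reach it; inactive means mean below it, under half of replicates reach it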;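 further: signal also drops with host cell toxicity which is not excluded here; 0% = plate median of DMSO wells and 100% = zero luminescence signal; higher percent means less beta-gal luminescence so fewer parasites; stock transfer was 50 nL into about 50 µL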
Calb FLC: C. albicans growth inhibition with fluconazole, primary screen, CaCi-2 strain, Alamar Blue fluorescence; C. albicans CaCi-2 (fluconazole-resistant clinical isolate) + fluconazole, 48 h; growth inhibition, % (no concentration beside the values); hit rate 0.57% among 300,000; AID 1979, 2009;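 active means most replicates above 75%; inconclusive means exactly half above 75%; inactive means most below 75%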;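 further: all wells also contain fluconazole at 8 µg/ml as a sub-toxic cotreatment; 0% = median of DMSO wells and 100% = median of geldanamycin control wells; wells of about 8 µL received 7.5 nL stock; the first replicate is given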
Bfl-1 A1 inh: caspase 3/7 activation in MEF A1-2A-BIM cells, primary screen, A1 inhibitor project, cell-based, luminescence, HTS; caspase activation, % (concentration not given with the values); Caspase-Glo 3/7 luminescence, 3 h; percent of clofoctol response, vehicle zero; hit rate 0.066% among 330,000;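 active means over half of replicate activation scores above 10%, or exactly half above 10 with the replicate mean above 10; inconclusive means replicate mean below 10 yet half the replicates above 10; inactive means over half of replicates below 10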;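 further: wells of about 30 µL received 50 nL stock; many hits fall short of the cut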
Beta apoptosis: inhibitors of cytokine-induced beta cell apoptosis, primary screen, luminescence | INS-1E cytokine-induced death, ATP luminescence, 48 h; percent of positive-control rescue, neutral wells zero | protection from apoptosis, % (test concentration not listed) | hit rate 0.8% among 300,000 | AID 435005, 2010;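 active means all replicates at 75% or more, or half of them and the mean; inconclusive means half reach 75% but not the mean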;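 further: 0% = cytokine-treated negative control wells and 100% = positive control rescue; higher means more ATP so stronger rescue from cytokine killing; wells of about 40 µL received 100 nL stock; the first replicate is given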
Vif TR-FRET: inhibitors of Vif binding to APOBEC3G peptide, primary screen, biochemical, TR-FRET, GST-Vif 1-94, biotin-A3G peptide, dose response retest (AID 1117319) | hit rate 0.57% among 260,000 | inhibition, %; hits with a dose series show IC50 in µM | TR-FRET GST-Vif / biotin-A3G peptide binding; higher % means a stronger effect; test concentration not given here; strong numbers were not always called active | Virion infectivity factor (Human immunodeficiency virus type 1 group M subtype B (isolate …;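 active means above the screen mean plus three standard deviations and confirmed in dose response; inconclusive means results disagree or hit not tested in dose response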;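 further: Vif residues 1-94 fused to GST binding biotinylated APOBEC3G peptide 110-148; 0% = full assay without inhibitor and 100% = GST in place of GST-Vif; retest series ran down from 100 µM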
RanGTP-Impb inh: inhibitors of RanGTP-importin-beta interaction, primary screen, biochemical, FRET, CFP-Ran, YFP-importin-beta, homogeneous | cell-free CFP-Ran/YFP-importin-beta FRET ratio | inhibition, % (no concentration beside the values) | hit rate 1.1% among 300,000;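 active means most replicates above 15%; inconclusive means exactly half above 15%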;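 further: 0% = DMSO wells and 100% = Ran loaded with GDP instead of GTP; wells of about 40 µL received 100 nL stock; the first replicate is given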
MLL AF4-AF9 inh: inhibitors of AF4 peptide binding to AF9, primary screen, biochemical, AlphaScreen, biotin-AF4 peptide, FLAG-AF9, single point; Protein AF-9 (Homo sapiens), P42568; inhibition, % at 10 µM; hit rate 0.47% among 350,000; AID 651704, 2012;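 active means every replicate reaching a set inhibition limit, whatever the replicate mean, cut at about 25% in these data; inconclusive means mean inhibition reaches that limit but some replicates miss it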;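 further: 0% = plate neutral control median and 100% = total signal loss; the record names both 10 and 1 µM as test concentration; the first replicate is given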
Target sequence (P42568 whole entry, looked up): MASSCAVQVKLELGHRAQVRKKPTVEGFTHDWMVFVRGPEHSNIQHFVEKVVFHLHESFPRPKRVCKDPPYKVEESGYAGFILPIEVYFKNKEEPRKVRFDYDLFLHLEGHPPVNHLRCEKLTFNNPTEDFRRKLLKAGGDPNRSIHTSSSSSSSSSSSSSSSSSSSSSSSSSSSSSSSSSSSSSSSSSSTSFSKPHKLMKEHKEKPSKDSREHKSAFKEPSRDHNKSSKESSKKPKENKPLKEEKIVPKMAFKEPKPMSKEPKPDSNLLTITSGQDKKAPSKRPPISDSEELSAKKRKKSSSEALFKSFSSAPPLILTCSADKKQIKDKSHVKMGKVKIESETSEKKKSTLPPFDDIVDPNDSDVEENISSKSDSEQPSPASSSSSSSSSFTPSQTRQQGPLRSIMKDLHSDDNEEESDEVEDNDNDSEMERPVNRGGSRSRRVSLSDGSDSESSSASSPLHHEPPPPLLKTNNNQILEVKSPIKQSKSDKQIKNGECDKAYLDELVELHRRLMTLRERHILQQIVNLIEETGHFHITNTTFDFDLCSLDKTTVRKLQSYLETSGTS
rRNA inh HTS OD600: second read-out of rRNA inh HTS, no call of its own (marks repeat the call); OD600 change, %; measured here: OD600 growth;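 optical density of the mix in the first replicate; 0 = DMSO median and -100 = no signal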
rRNA inh HTS RFP: also measured in rRNA inh HTS; calls as there; RFP signal change, %; measured here: RFP humanized mutant strains;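 first replicate; 0 = DMSO median and -100 = no signal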
* hit, by the source's call; u = inconclusive; x = not tested or not shown.

smiles	rRNA inh HTS	rRNA inh HTS OD600	rRNA inh HTS RFP	T cruzi repl	Calb FLC	Bfl-1 A1 inh	Beta apoptosis	Vif TR-FRET	RanGTP-Impb inh	MLL AF4-AF9 inh
O=C(NCCCn1ccnc1)c1cc(-c2cccs2)on1	x	x	x	30.9	-6.3	-0.4	54.0	4.1%	2.8	x
COCCn1c(C)cc2c(c1=O)C(c1ccco1)C(C#N)=C(N)O2 (stereo unspecified)	x	x	x	-27.5	27.1	1.1	-2.1	0.0%	7.9	x
Cn1cc(CN2CCC(C(=O)Nc3cccc(-c4cccc(F)c4)c3)CC2)cn1	5.0	3.7	1.7	26.8	0.5	0.4	1.5	x	2.2	5.2
COC(=O)c1nnn(-c2nonc2N)c1CSCCO	x	x	x	-6.8	-9.3	1.4	-1.6	1.9%	-1.8	x
CC1(OC(=O)C2CCCC2)C(=O)C=C2C=C3CCCCN3C=C2C1=O (stereo unspecified)	x	x	x	-6.7	4.3	-0.9	-11.2	x	-0.6	x
CCOC(=O)CSc1nnc(-c2ccc(S(=O)(=O)N3CCOCC3)cc2)n1-c1ccccc1	x	x	x	-10.5	-0.8	2.9	1.8	-5.9%	4.5	x
CCOC(=O)N1CCN(S(=O)(=O)c2ccc(C(=O)N(CCCN(C)C)c3nc4ccc(OC)cc4s3)cc2)CC1	8.5	12.0	3.7	39.9	3.1	-0.7	-8.6	0.9%	2.4	7.7
CN(C)C(=O)CSc1nnc(Cc2ccc3c(c2)OCO3)o1	7.4	12.3	0.8	-0.3	3.2	0.0	-5.4	-5.2%	2.5	-0.7
CCOC(=O)C(C)/C(C)=N/NC(=O)CCC(=O)Nc1cc(C)ccc1C (stereo unspecified)	19.1	10.3	0.5	-14.7	-6.5	0.6	x	3.1%	-2.1	-1.7
CN(C)c1ccc(NC(=O)CN2C(=O)CC(c3ccccc3)=Nc3ccccc32)cc1	x	x	x	4.9	-1.1	0.0	-3.1	22.3%	-2.6	x
CN(CCO)c1cnccn1	7.7	14.3	-1.4	-0.2	-7.1	2.4	-2.2	-4.6%	0.4	-2.6
CC1CC(C)CN(CCCNC(=O)c2cc3c(s2)-c2ccccc2OC3)C1 (stereo unspecified)	-3.8	-36.2	25.6	31.3	-13.9	1.1	4.7	0.4%	-2.7	8.4
C[C@@H](NC(=O)c1nc[nH]c1C(=O)N[C@@H](CCCCNC(=O)OC(C)(C)C)C(=O)OC(C)(C)C)c1ccccc1	2.0	3.5	-0.2	20.7	15.9	0.7	6.8	x	0.0	x
ClCc1cc2ccccc2nc1Cl	7.1	10.6	-0.3	-23.1	-0.2	u	-13.6	26.3%	u	0.6
CN(CP(=O)(O)CN(C)S(C)(=O)=O)S(C)(=O)=O	x	x	x	-1.0	-2.7	0.2	-4.8	9.5%	-1.8	x
c1ccc(COc2ccc(CNCc3cccs3)cc2)cc1	-32.1	-56.0	22.3	7.2	-71.1	-1.8	10.1	u	-0.1	-15.5
CCOC(=O)CC1COCCN1C(=O)CCc1nnc(-c2ccsc2)o1 (stereo unspecified)	15.4	15.2	-0.3	2.2	2.6	0.4	2.2	x	1.3	-3.1
O=C(CN1CCSCC1)N/N=C/c1ccc(F)cc1	0.5	-7.7	-9.0	1.4	3.1	-0.1	-1.5	8.3%	1.1	2.7
CCCn1c(N)c(C(=O)CSc2n[nH]c(-c3ccc(C)cc3)n2)c(=O)[nH]c1=O	4.0	12.3	-0.9	-8.1	5.9	1.1	3.8	7.9%	x	-12.0
CCN(Cc1cn2cccnc2n1)C1CCCCC1	6.4	9.8	3.2	5.4	7.6	0.7	-11.5	1.3%	1.0	-0.3
CCCc1cc2c(cc1NC(=O)c1ccccc1F)OCO2	x	x	x	-16.6	-6.7	0.5	-0.1	9.2%	-3.4	x
CC1CCN(C(=O)c2cc(S(=O)(=O)N3CCOCC3)ccc2N2CCCC2)CC1	2.1	7.7	2.7	x	x	-0.8	-6.8	x	x	0.4
CCn1c(SCC(=O)O)nnc1-c1ccc(S(=O)(=O)N2CCCC2)cc1	4.0	10.0	-0.4	-16.4	19.5	-0.3	-4.6	x	-0.4	-2.1
Cc1noc(NS(=O)(=O)c2ccc(NC(=O)CSc3nnc(-c4ccccc4)n3C3CCCCC3)cc2)c1C	-18.8	-11.5	-0.2	5.4	-2.3	0.8	-5.8	64.5%	u	-6.4
CCC1SC2=NC(C)=C(C(=O)OCC(C)C)C(/C=C/c3ccccc3OC)N2C1=O (stereo unspecified)	x	x	x	25.2	u	0.7	x	-1.5%	5.4	x
COc1ccc(S(=O)(=O)N(C)C[C@H]2Oc3ccc(NC(=O)Cc4ccccc4)cc3C(=O)N([C@H](C)CO)C[C@@H]2C)cc1	-3.3	-9.7	1.1	x	x	0.6	2.2	x	x	-1.3
O=C(COC(=O)[C@@H]1CCCN1S(=O)(=O)c1ccc(Cl)cc1)NC1CCS(=O)(=O)C1 (stereo partly specified)	-0.1	0.2	-1.2	-21.9	0.1	0.4	-0.2	3.7%	1.8	-0.9
FC(F)(F)c1cc(-c2ccccc2)nc2ncnn12	0.8	5.1	-0.6	-16.8	9.8	1.0	-9.5	7.0%	1.5	-1.0
COC(=O)c1c(C(=O)OC)c(-c2cccc(F)c2)n2c1CS(=O)C2 (stereo unspecified)	11.8	12.2	1.2	-0.9	35.2	-0.3	-7.6	-3.4%	2.4	-1.3
O=C(NNC(=O)c1ccccc1-n1cccc1)c1ccc(F)cc1	5.4	7.3	-3.4	-31.1	u	-0.2	-3.5	8.7%	5.0	-1.4
Cc1ccc(S(=O)(=O)N2CCCCC2)cc1NC(=O)COC(=O)c1cc[n+]([O-])cc1	10.6	3.0	0.3	9.8	-13.5	-0.6	0.3	31.2%	0.7	-6.5
Cc1ccc(NC(=O)CCSc2nnc(C)s2)cc1	x	x	x	-10.5	2.9	-0.7	x	x	4.1	x
COc1ccc(-c2nc(CN3CCCC(C(=O)NC4CCCC4)C3)c(C)o2)cc1 (stereo unspecified)	x	x	x	38.8	-16.3	0.6	-2.6	-2.1%	-2.2	x
CCOC(=O)c1c(C)[nH]c(C(=O)CN2C(=O)NC(C)(CC(C)C)C2=O)c1C (stereo unspecified)	-16.4	-21.8	-2.3	-0.7	2.0	0.1	-0.6	x	-3.5	1.0
COc1ccc(CCNc2ccc(C(CC(N)=O)NC(=O)c3ccccc3)cc2[N+](=O)[O-])cc1 (stereo unspecified)	x	x	x	-33.3	-7.4	-0.7	x	-9.5%	-5.1	x
COc1ccc(C(=O)NCc2ccc(N3CCN(C(=O)OC(C)(C)C)CC3)cc2)cc1	x	x	x	-6.3	3.8	0.5	2.7	-7.6%	3.7	x
Cc1cccc(C)c1NC(=O)CCc1nnc2ccc(N3CCCC3)nn12	0.6	4.1	-3.7	-15.4	-2.1	0.0	x	x	1.5	-1.3
COC(=O)c1ccccc1NC(=S)N(Cc1ccc2c(c1)OCO2)Cc1cc2cccc(C)c2[nH]c1=O	x	x	x	41.2	u	-0.5	x	x	1.6	x
COC(=O)C(NC(=O)c1ccccc1C)(Nc1ncc(S(=O)(=O)c2ccc([N+](=O)[O-])cc2)s1)C(F)(F)F (stereo unspecified)	x	x	x	44.3	-22.7	-0.7	15.2	19.5%	3.5	x
CCN(CC)CCCNC(=O)c1cc2c(-c3ccc(Cl)cc3)nn(C)c2s1	-1.9	4.0	1.2	42.1	5.1	0.1	28.0	-0.2%	1.1	7.4

Looked up one by one from the entries so far, 2 records:
smiles	rRNA inh HTS	rRNA inh HTS OD600	rRNA inh HTS RFP	T cruzi repl	Calb FLC	Bfl-1 A1 inh	Beta apoptosis	Vif TR-FRET	RanGTP-Impb inh	MLL AF4-AF9 inh
CCN(CC)CCCNC(=O)c1cc2c(-c3ccc(Cl)cc3)nn(C)c2s1	-1.9	4.0	1.2	42.1	5.1	0.1	28.0	-0.2%	1.1	7.4
Cc1cccc(C)c1NC(=O)CCc1nnc2ccc(N3CCCC3)nn12	0.6	4.1	-3.7	-15.4	-2.1	0.0	x	x	1.5	-1.3

(cont.)
smiles	rRNA inh HTS	rRNA inh HTS OD600	rRNA inh HTS RFP	T cruzi repl	Calb FLC	Bfl-1 A1 inh	Beta apoptosis	Vif TR-FRET	RanGTP-Impb inh	MLL AF4-AF9 inh
OC(COc1ccc(OCc2ccccc2)cc1)CN1CCCCC1 (stereo unspecified)	x	x	x	56.5*	-15.4	0.3	-10.1	4.9%	0.0	x
COc1ccc2nc(NC(=O)c3ccc(F)cc3)sc2c1	8.4	10.5	-4.1	24.1	10.9	-6.1	14.0	x	-1.8	-14.9
NNc1ccc(S(=O)(=O)N2CCCCC2)cn1	8.0	5.8	-2.4	2.3	-8.6	0.5	-2.5	x	-0.1	5.2
CCOc1ccc(OCCSc2nnnn2C2CCCCC2)cc1	x	x	x	16.8	9.2	0.6	1.7	-1.0%	0.7	x
C(=N/Nc1cc(N2CCOCC2)nc(N2CCOCC2)n1)/c1ccccc1	4.9	7.6	8.9	48.3	6.6	0.1	2.9	x	u	10.4
O/N=C/c1cccn1-c1ccc(O)cc1	x	x	x	-8.5	u	-1.6	-7.6	u	2.9	x
COc1cccc(C(=O)Nc2nnc(SCC(=O)NC3CCCC3)s2)c1	3.1	4.9	-2.1	-2.0	-5.3	-4.3	-1.5	x	4.0	0.7
COc1ccc(-n2c(SCC(=O)NCc3cccs3)nc3[nH]ncc3c2=O)cc1	7.3	-1.7	-3.5	2.8	5.2	0.9	0.5	5.3%	u	-1.5

An excerpt (hit frequency here may not be typical).
